CSC inhib: blocks cancer stem cells. 300,000 compounds, 1.1% hits. cancer stem cell-like cells viability, luminescence. inhibition, % at 7.5 µM;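 active means mean at 75% or more and at least half the replicates too; tested in HMLE shEcad cells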;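 further: 0% = median of negative and 100% = median of positive control wells; the first replicate is given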
UUG fidelity: yeast start codon fidelity modulation. S. cerevisiae UUG-firefly luciferase reporter, luminescence/redox ratio. activity score, % at 18.7 µM. 350,000 compounds, 0.13% hits. AID 602363;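 active means replicate mean at a twofold rise or more, about +100% in these data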;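 further: firefly luciferase made from a UUG start codon reports start codon fidelity; reporter light over untreated wells divided by growth signal over untreated wells; some hits fall short of that in this replicate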
Env fusion inh: inhibitors of HIV Env-mediated cell fusion; HeLa-JRFL Env/CEM21 cell fusion, luciferase; AID 651610; inhibition, % at 12.3 µM; 360,000 compounds, 1.1% hits;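 active means mean replicate inhibition score of at least 50 and every replicate individually at or above 50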;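 further: 0% = plate neutral controls and 100% = maraviroc near 300 nM; one replicate is shown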
PABP FP inh: blocks human PABP binding to poly(A) RNA; P11940; 290,000 compounds, 1% hits; fluorescence polarization; inhibition, % at 35 µM;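 active means 50% or more with normal probe brightness, or confirmed in later tests; about a fifth of its hits are not listed in these tables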;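 further: calls also rest on retests at 20 µM and on dose response follow-up; controls were probe without protein and protein plus probe with vehicle; some compounds called inactive have numbers as strong as hits; many hits fall short of the cut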
Target sequence (P11940 whole entry, looked up): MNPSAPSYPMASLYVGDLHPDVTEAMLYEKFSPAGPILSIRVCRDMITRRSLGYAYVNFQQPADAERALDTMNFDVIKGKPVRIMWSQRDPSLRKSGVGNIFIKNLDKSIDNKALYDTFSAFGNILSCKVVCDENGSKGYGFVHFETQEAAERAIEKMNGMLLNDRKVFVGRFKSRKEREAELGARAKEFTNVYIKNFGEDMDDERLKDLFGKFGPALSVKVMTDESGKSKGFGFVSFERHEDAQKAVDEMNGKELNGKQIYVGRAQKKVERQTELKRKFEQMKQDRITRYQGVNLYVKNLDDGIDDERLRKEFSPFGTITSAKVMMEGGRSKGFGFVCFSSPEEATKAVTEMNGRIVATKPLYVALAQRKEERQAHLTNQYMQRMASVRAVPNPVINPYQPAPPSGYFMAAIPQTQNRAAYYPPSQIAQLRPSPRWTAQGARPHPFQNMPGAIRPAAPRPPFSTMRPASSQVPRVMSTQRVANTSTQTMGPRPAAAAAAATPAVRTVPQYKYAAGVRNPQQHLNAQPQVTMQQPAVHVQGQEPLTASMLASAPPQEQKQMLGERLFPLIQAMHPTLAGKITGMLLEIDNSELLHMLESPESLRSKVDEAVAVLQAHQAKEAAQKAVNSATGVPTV
MT1-MMP act inh: blocks activation of human MT1-MMP. 360,000 compounds, 0.061% hits. P50281. GFP/RFP ratio change, % at 20 µM. HT1080 RFP-PRO-GFP cells, GFP/RFP ratio fluorescence, overnight; percent of plate control window, DMSO zero;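 active means GFP/RFP ratio change of at least 30% with cell ATP level not reduced by more than half and red fluorescence within 50% of control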; further: strong numbers were not always called active
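Compound: 20 µM single dose, 1% DMSO / System: HT1080 RFP-PRO-GFP cells / Controls: DMSO and RFP-L50D-GFP cell wells / Read-out basis: GFP/RFP fluorescence ratio / Schedule: overnight compound exposure at 37 °C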
eIF4H inh: inhibitors of RNA binding by human eIF4H; eIF4H fluorescence polarization binding assay; 290,000 compounds, 0.94% hits; Q15056; inhibition, % at 35 µM;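 active means 50% or more with normal probe brightness, or confirmed in later tests; about a fifth of its hits are not listed in these tables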;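 further: calls also rest on retests at 20 µM and on dose response follow-up; 0% = protein and probe with vehicle and 100% = probe without protein; strong numbers were not always called active; many hits fall short of the cut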
Rce1 inhib: yeast Ras-converting enzyme inhibition; Q03530; yeast membranes, quenched prenylated peptide cleavage fluorescence; calls only; 290,000 compounds, 0.27% hits;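 active means fall in fluorescence gain of 50% or more versus controls, with final raw signal at or below 3038400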;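 further: plate controls were neutral control wells for no effect and wells lacking membranes for full effect; tested at 10 µM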
Target sequence (Q03530 whole entry, looked up): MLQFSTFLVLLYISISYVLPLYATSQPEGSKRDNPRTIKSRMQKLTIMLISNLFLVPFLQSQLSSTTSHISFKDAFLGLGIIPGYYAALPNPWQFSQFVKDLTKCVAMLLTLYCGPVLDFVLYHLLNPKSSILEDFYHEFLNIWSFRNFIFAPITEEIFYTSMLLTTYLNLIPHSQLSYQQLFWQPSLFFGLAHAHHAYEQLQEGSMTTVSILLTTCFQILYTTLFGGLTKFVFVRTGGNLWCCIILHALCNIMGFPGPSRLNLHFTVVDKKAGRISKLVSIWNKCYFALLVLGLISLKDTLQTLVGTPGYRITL
MT1-MMP act inh RFP: recorded beside MT1-MMP act inh, whose call it bears; RFP signal change, %; measured here: RFP expression control read;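 0 = vehicle wells; hits needed this value within 50% of zero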
Numbers without * were called inactive.

Start of the data: the first 2 entries, ahead of the listing:
What do the screens show for `COC(=O)c1ccccc1NC(=O)c1cc(-c2cccs2)on1`?
CSC inhib: 2.6; UUG fidelity: -5.5; PABP FP inh: -3.2; MT1-MMP act inh: -0.6; eIF4H inh: -1.4; Rce1 inhib: inactive; MT1-MMP act inh RFP: -2.2

How did CC(=O)Nc1cc(-c2ccc(N3CCN(C)CC3)cc2)cn2c(-c3ccccc3)cnc12 do in these assays?
UUG fidelity: -29.5; Env fusion inh: 23.1; MT1-MMP act inh: -19.0; MT1-MMP act inh RFP: 0.2

All compounds of this part, previewed entries included:
What do the screens show for `COC(=O)c1ccccc1NC(=O)c1cc(-c2cccs2)on1`?
CSC inhib: 2.6; UUG fidelity: -5.5; PABP FP inh: -3.2; MT1-MMP act inh: -0.6; eIF4H inh: -1.4; Rce1 inhib: inactive; MT1-MMP act inh RFP: -2.2

How did CC(=O)Nc1cc(-c2ccc(N3CCN(C)CC3)cc2)cn2c(-c3ccccc3)cnc12 do in these assays?
UUG fidelity: -29.5; Env fusion inh: 23.1; MT1-MMP act inh: -19.0; MT1-MMP act inh RFP: 0.2

How did O/N=C\c1cnc(N2CCN(c3ccccc3)CC2)s1 do in these assays?
CSC inhib: -3.2; UUG fidelity: -20.4; Env fusion inh: -19.1; PABP FP inh: -1.7; MT1-MMP act inh: 5.7; eIF4H inh: -13.6; Rce1 inhib: inactive; MT1-MMP act inh RFP: -0.1

How did COc1cccc(NC(=O)CSc2nc3ccccc3n2C)c1 do in these assays?
CSC inhib: 9.1; Env fusion inh: 4.5; PABP FP inh: -4.6; MT1-MMP act inh: -3.6; eIF4H inh: -8.5; Rce1 inhib: inactive; MT1-MMP act inh RFP: -1.4

Results for Cc1c(NS(=O)(=O)c2ccc(C(=O)NCc3ccccc3)cc2)c(=O)n(-c2ccccc2)n1C ?
CSC inhib: -3.6; UUG fidelity: -4.0; Env fusion inh: 10.5; PABP FP inh: -6.1; MT1-MMP act inh: -1.4; eIF4H inh: -0.3; Rce1 inhib: inactive; MT1-MMP act inh RFP: 0.8

How did CC(C)(C)NC(=O)COc1ccc2oc3c(c2c1)CCCC3 do in these assays?
CSC inhib: 4.4; UUG fidelity: -5.9; Env fusion inh: -6.1; PABP FP inh: -4.8; MT1-MMP act inh: 2.8; eIF4H inh: -3.8; MT1-MMP act inh RFP: -3.0

What do the screens show for `CCOC(=O)COc1ccc(S(=O)(=O)Nc2ccc3c(c2)OCCO3)cc1`?
CSC inhib: -4.8; Env fusion inh: -32.1; PABP FP inh: -8.7; MT1-MMP act inh: 3.9; eIF4H inh: 12.6; Rce1 inhib: inactive; MT1-MMP act inh RFP: 1.2

How did CN1C(=O)C2C(c3ccc(N(C)C)cc3)NN(Cc3ccccc3)C2C1=O (centres undefined) do in these assays?
CSC inhib: -10.5; UUG fidelity: -8.4; Env fusion inh: 7.2; PABP FP inh: 5.1; MT1-MMP act inh: -1.7; eIF4H inh: -3.6; Rce1 inhib: inactive; MT1-MMP act inh RFP: 0.4

How did COc1ccc(-c2nnc3c4ccccc4c(C)nn23)cc1S(=O)(=O)N1CCN(CCO)CC1 do in these assays?
CSC inhib: -4.1; UUG fidelity: -9.1; Env fusion inh: 7.7; PABP FP inh: 7.2; MT1-MMP act inh: -6.8; eIF4H inh: 3.6; Rce1 inhib: inactive; MT1-MMP act inh RFP: -1.4

What do the screens show for `COCCC(=O)N1CCCC(C(=O)c2ccc(Oc3ccccc3)cc2)C1` (centres undefined)?
CSC inhib: -1.6; UUG fidelity: 10.8; Env fusion inh: 27.8; PABP FP inh: -7.7; MT1-MMP act inh: -2.2; eIF4H inh: -2.7; Rce1 inhib: inactive; MT1-MMP act inh RFP: -7.4

What do the screens show for `Cc1ccc(S(=O)(=O)N2CCOCC2)cc1NC(=O)COC(=O)/C=C/c1ccc(F)cc1`?
CSC inhib: 1.3; Env fusion inh: -12.9; MT1-MMP act inh: -1.1; MT1-MMP act inh RFP: 1.3

Results for O=C(NCc1ccc(OC(F)(F)F)cc1)C1CC(c2ccc(C(F)(F)F)cc2)=NO1 (centres undefined) ?
CSC inhib: 53.5; UUG fidelity: -16.0; Env fusion inh: -14.5; MT1-MMP act inh: 1.4; Rce1 inhib: inactive; MT1-MMP act inh RFP: -0.6

Results for Cc1ccc(C2=NN(C(=O)c3ccco3)C(O)(C(F)(F)F)C2)cc1 (centres undefined) ?
CSC inhib: -15.7; UUG fidelity: 40.7; Env fusion inh: -4.8; PABP FP inh: 4.7; MT1-MMP act inh: -4.0; eIF4H inh: -6.5; Rce1 inhib: inactive; MT1-MMP act inh RFP: -4.2

How did CCCN1CCC(NC(=S)Nc2ccc([N+](=O)[O-])cc2)CC1 do in these assays?
CSC inhib: 0.6; Env fusion inh: -1.8; PABP FP inh: -2.8; MT1-MMP act inh: -4.7; eIF4H inh: 0.5; Rce1 inhib: inactive; MT1-MMP act inh RFP: -1.6

How did NS(=O)(=O)c1ccc(NC(=O)c2ccccc2Cl)cc1 do in these assays?
CSC inhib: -5.9; Env fusion inh: -20.8; PABP FP inh: -2.3; MT1-MMP act inh: -4.7; eIF4H inh: -1.2; Rce1 inhib: inactive; MT1-MMP act inh RFP: -2.8

A section from further up, for reference:
How did CC(=O)Nc1cc(-c2ccc(N3CCN(C)CC3)cc2)cn2c(-c3ccccc3)cnc12 do in these assays?
UUG fidelity: -29.5; Env fusion inh: 23.1; MT1-MMP act inh: -19.0; MT1-MMP act inh RFP: 0.2

How did O/N=C\c1cnc(N2CCN(c3ccccc3)CC2)s1 do in these assays?
CSC inhib: -3.2; UUG fidelity: -20.4; Env fusion inh: -19.1; PABP FP inh: -1.7; MT1-MMP act inh: 5.7; eIF4H inh: -13.6; Rce1 inhib: inactive; MT1-MMP act inh RFP: -0.1

Next section:
What do the screens show for `Cc1ccc(CNC(=O)CCn2cc(-c3ccc(C)cc3)nc2CCN)cc1`?
CSC inhib: 3.0; UUG fidelity: -15.7; Env fusion inh: 17.4; MT1-MMP act inh: -1.4; MT1-MMP act inh RFP: 1.1

Results for N#Cc1c2n(c3c(=O)n(Cc4ccccc4Cl)cnc13)CCCCC2 ?
CSC inhib: 24.2; UUG fidelity: 2.8; PABP FP inh: -4.1; MT1-MMP act inh: -3.6; eIF4H inh: 8.3; MT1-MMP act inh RFP: -2.8

How did Cc1ccc(NC(=O)Cn2cccc2)cc1 do in these assays?
CSC inhib: -2.7; Env fusion inh: -5.5; PABP FP inh: -0.7; MT1-MMP act inh: 2.3; eIF4H inh: -2.0; Rce1 inhib: inactive; MT1-MMP act inh RFP: 0.9

How did O=S(=O)(Nc1ccc(-n2cccc2)cc1)c1ccc(F)cc1 do in these assays?
CSC inhib: 6.9; UUG fidelity: 3.4; Env fusion inh: 8.8; PABP FP inh: -4.4; MT1-MMP act inh: 6.0; eIF4H inh: 3.0; Rce1 inhib: inactive; MT1-MMP act inh RFP: 5.7

Results for CC(OC(=O)c1ccncc1)C(=O)NC1CCCC1 (centres undefined) ?
CSC inhib: 4.5; Env fusion inh: -16.3; PABP FP inh: -5.3; MT1-MMP act inh: -1.0; eIF4H inh: -7.4; Rce1 inhib: inactive; MT1-MMP act inh RFP: 4.0

Results for O=c1[nH]c(COc2ccc(Cl)cc2Cl)nc2ccccc12 ?
CSC inhib: -2.8; UUG fidelity: -11.5; Env fusion inh: -46.1; PABP FP inh: -3.4; MT1-MMP act inh: 0.8; eIF4H inh: -5.4; Rce1 inhib: inactive; MT1-MMP act inh RFP: -0.2

How did CCNC(=O)CC1SC(=Nc2cccc(Cl)c2C)N(C)C1=O (centres undefined) do in these assays?
CSC inhib: -0.5; UUG fidelity: -10.5; Env fusion inh: 19.8; PABP FP inh: 9.9; MT1-MMP act inh: 4.6; eIF4H inh: -15.2; Rce1 inhib: inactive; MT1-MMP act inh RFP: -7.2

What do the screens show for `COCCNC(=O)C1(C(F)(F)F)CC(CCCO)CCCO1` (centres undefined)?
CSC inhib: -0.4; UUG fidelity: 6.4; Env fusion inh: 9.5; MT1-MMP act inh: 0.0; Rce1 inhib: inactive; MT1-MMP act inh RFP: 3.3

How did Cc1ccccc1/C=C/c1nc2ccccc2c(=O)n1CCc1ccccc1 do in these assays?
CSC inhib: 21.4; Env fusion inh: 41.8; PABP FP inh: 2.6; MT1-MMP act inh: -4.6; eIF4H inh: -8.0; Rce1 inhib: inactive; MT1-MMP act inh RFP: -5.8

Results for CCC(CC)c1nnc(NC(=O)CCc2ccc(OC)cc2)s1 ?
CSC inhib: -10.4; UUG fidelity: -12.4; Env fusion inh: 3.3; PABP FP inh: -6.4; MT1-MMP act inh: 3.9; eIF4H inh: 5.4; Rce1 inhib: inactive; MT1-MMP act inh RFP: 9.0

How did O=C(c1ccc2c(c1)OCO2)[C@@H]1[C@@H]2C(=O)N(C3CCCCC3)C(=O)[C@@H]2C2c3ccccc3C=CN21 (some centres undefined) do in these assays?
UUG fidelity: -8.6; PABP FP inh: 8.2; MT1-MMP act inh: -21.2; eIF4H inh: -3.5; Rce1 inhib: inactive; MT1-MMP act inh RFP: -1.7

Results for CCOC(=O)C1=NOC(Cn2cc(C#N)c(=O)n(C)c2=O)C1 (centres undefined) ?
CSC inhib: -8.2; UUG fidelity: -11.0; Env fusion inh: 13.8; PABP FP inh: 3.3; MT1-MMP act inh: 0.1; eIF4H inh: 0.1; Rce1 inhib: inactive; MT1-MMP act inh RFP: 5.8

Results for Cc1cccc(C)c1NC(=O)CSc1nnc(Cc2ccccc2)o1 ?
CSC inhib: 1.8; UUG fidelity: -13.3; Env fusion inh: -11.4; PABP FP inh: 10.6; MT1-MMP act inh: -3.4; eIF4H inh: 7.2; Rce1 inhib: inactive; MT1-MMP act inh RFP: -7.4

Results for CCOC(=O)C1(CC2CC2)CCN(C(=O)c2cc(C3CC3)nc3ccccc23)CC1 ?
CSC inhib: -8.7; UUG fidelity: 7.0; Env fusion inh: -16.1; PABP FP inh: -0.4; eIF4H inh: 0.0

What do the screens show for `N#Cc1nc(COc2ccc(Cl)cc2)oc1N1CCN(Cc2ccccc2)CC1`?
CSC inhib: 9.3; UUG fidelity: -9.0; PABP FP inh: -4.1; MT1-MMP act inh: -1.6; eIF4H inh: -4.1; Rce1 inhib: inactive; MT1-MMP act inh RFP: -5.3

What do the screens show for `COc1cc2c(cc1OC)C(c1ccccc1O)NCC2` (centres undefined)?
CSC inhib: -0.6; UUG fidelity: -16.2; Env fusion inh: -0.7; PABP FP inh: -14.4; MT1-MMP act inh: -7.3; eIF4H inh: 2.0; Rce1 inhib: inactive; MT1-MMP act inh RFP: -0.6

What do the screens show for `COc1ccccc1-c1n[nH]c2c1[C@H](C)CC[C@H]2C(C)C`?
CSC inhib: 1.7; UUG fidelity: -23.8; PABP FP inh: 5.3; MT1-MMP act inh: -6.0; eIF4H inh: -0.6; Rce1 inhib: inactive; MT1-MMP act inh RFP: -13.0

What do the screens show for `CN1CCN(S(=O)(=O)c2cccc([N+](=O)[O-])c2)CC1`?
CSC inhib: -0.6; UUG fidelity: 5.4; MT1-MMP act inh: 2.2; Rce1 inhib: inactive; MT1-MMP act inh RFP: 2.5

Results for CCOc1ccccc1C(=O)Nc1ccc(-n2nncc2C(C)(C)C)cc1 ?
CSC inhib: 7.4; UUG fidelity: 12.0; Env fusion inh: 4.4; PABP FP inh: 2.7; MT1-MMP act inh: 6.0; eIF4H inh: -3.8; Rce1 inhib: inactive; MT1-MMP act inh RFP: -8.0

Results for Cc1ccc(NC(=S)N(CCN2CCOCC2)Cc2cc3cc4c(cc3[nH]c2=O)OCCO4)cc1 ?
CSC inhib: -1.9; UUG fidelity: -18.4; Env fusion inh: 9.0; PABP FP inh: 11.3; MT1-MMP act inh: -0.7; eIF4H inh: 0.0; Rce1 inhib: inactive; MT1-MMP act inh RFP: -5.8

What do the screens show for `COC(=O)CSc1nc(C)c(C(=O)Nc2ccccc2C)c(-c2ccc(Cl)cc2)c1C#N`?
CSC inhib: -5.1; Env fusion inh: -3.5; PABP FP inh: -7.8; MT1-MMP act inh: -0.6; eIF4H inh: -10.5; Rce1 inhib: inactive; MT1-MMP act inh RFP: 1.6

Source: PubChem (several laboratories)

Not all compounds are listed, so the mix of outcomes need not match the whole.
